RecA splice inh: Mtb RecA intein splicing inhibitors, primary screen, biochemical, fluorescence, HTS; cell-free RecA intein splicing; inhibition, %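 (about 9 µM by stock and volumes)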; 0.75% of 290,000 active; Protein RecA (Mycobacterium tuberculosis (strain ATCC 25618 / H37Rv)), P9WHJ3; in the data active = inhibition above about 30%; inconclusive = no clear call, values can overlap the other calls;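 note: 0% = vehicle wells and 100% = reference inhibitor control wells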
Target sequence (P9WHJ3 whole entry, looked up, canonical isoform): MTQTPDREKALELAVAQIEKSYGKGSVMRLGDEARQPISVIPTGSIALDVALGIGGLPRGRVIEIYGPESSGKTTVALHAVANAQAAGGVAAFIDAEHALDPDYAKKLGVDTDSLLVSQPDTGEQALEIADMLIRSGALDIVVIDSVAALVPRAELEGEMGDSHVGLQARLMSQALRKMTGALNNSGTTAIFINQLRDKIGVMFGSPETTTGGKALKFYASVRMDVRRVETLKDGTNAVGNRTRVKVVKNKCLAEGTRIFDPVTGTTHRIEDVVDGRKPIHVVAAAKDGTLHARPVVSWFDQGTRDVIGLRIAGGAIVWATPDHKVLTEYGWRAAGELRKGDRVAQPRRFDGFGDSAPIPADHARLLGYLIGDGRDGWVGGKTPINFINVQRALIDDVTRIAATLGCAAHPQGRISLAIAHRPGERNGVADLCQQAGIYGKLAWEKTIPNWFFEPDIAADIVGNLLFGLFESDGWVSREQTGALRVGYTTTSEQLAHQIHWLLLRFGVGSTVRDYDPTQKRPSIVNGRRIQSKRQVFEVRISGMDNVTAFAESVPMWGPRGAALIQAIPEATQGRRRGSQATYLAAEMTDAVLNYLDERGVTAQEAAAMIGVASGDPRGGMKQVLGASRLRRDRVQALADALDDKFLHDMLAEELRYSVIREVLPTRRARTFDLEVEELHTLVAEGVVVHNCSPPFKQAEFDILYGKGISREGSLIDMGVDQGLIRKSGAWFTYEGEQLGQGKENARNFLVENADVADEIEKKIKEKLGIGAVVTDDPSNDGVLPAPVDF
Mtb betalactam: beta-lactam sensitization of Mtb H37Rv, H37Rv. M. tuberculosis H37Rv growth with meropenem, percent inhibition; hits of this screen are not shown here. inhibition, % at 25 µM. 0.27% of 330,000 active. AID 434955, 2010;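 active = about 74% or more and at least 40 points above the plate without the antibiotic, then above 30% in a dose series; inconclusive = first-round hits that could not be retested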;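 note: growth measured after seven days incubation then overnight dye step; 0% = bacteria only wells and 100% = bacteria with antibiotic; twin plates without the antibiotic show which effects depend on it; some results filed as inactive read as strong as hits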
YopH inh: YopH tyrosine phosphatase inhibitors, primary screen, biochemical, fluorescence Ex485/Em525; inhibition, %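 (about 10 µM by stock and volumes)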; 0.16% of 140,000 active; AID 898, 2007;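 active = inhibition of 50% or more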;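 note: controls were vehicle for no effect and minimum signal wells for full effect; inactives centre near -20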
Mtb growth: M. tuberculosis H37Rv growth inhibitors, H37Rv strain (AID 1626); M. tuberculosis H37Rv growth inhibition; higher % means a stronger effect; inhibition, % at 10 µM; hits with a dose series show IC50 in µM; 0.95% of 220,000 active;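 active = confirmed in a dose series; inconclusive = inhibition above 80% but not taken into the dose series; inactive = below 80% or under 30% at every dose of the series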;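 note: bacteria incubated seven days before Alamar blue readout; 0% = bacteria only wells and 100% = bacteria with antibiotic wells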
Arbovirus anti: antivirals against arbovirus infection, primary screen, cell-based, full library, 10K replicate subset; 0.37% of 200,000 active; inhibition, % at 10 µM; arbovirus infection cell-based antiviral screen;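 active = inhibition from about 30%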;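 note: bluetongue infection of BSR cells; cell survival read as ATP light after 72 h; 0% = infected wells without compound and 100% = uninfected wells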
Arbovirus anti repeat: recorded beside Arbovirus anti, whose call it bears; inhibition, %; measured here: 10K subset replicate screen; many hits read low in the repeat;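 first of two repeat runs on a subset; 0% = infected and 100% = uninfected wells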
Starred values were filed as active, the others as inactive; ? = inconclusive; nt = no result given; & = joins results of further samples.

Sample of the layout:
SMILES	RecA splice inh	Mtb betalactam	YopH inh	Mtb growth	Arbovirus anti	others
CCOC(=O)c1ccc(Nc2c(CC)c(C)nc3ncnn23)cc1	-0.8	-9	-16	3%	-5
Cc1cc(NC(=O)CSCc2nc(-c3cccc(F)c3)oc2C)no1	-3.5	5	-37	4%	1
O=C(Nc1cccc(Cl)c1)c1ccc2c(c1)OCCO2	0.2	0	nt	nt	nt
CCSc1ccccc1C(=O)NCc1ccc(OC)cc1	-3.0	8	-39	6%	-5

All compounds of this part, previewed entries included:
SMILES	RecA splice inh	Mtb betalactam	YopH inh	Mtb growth	Arbovirus anti	others
CCOC(=O)c1ccc(Nc2c(CC)c(C)nc3ncnn23)cc1	-0.8	-9	-16	3%	-5
Cc1cc(NC(=O)CSCc2nc(-c3cccc(F)c3)oc2C)no1	-3.5	5	-37	4%	1
O=C(Nc1cccc(Cl)c1)c1ccc2c(c1)OCCO2	0.2	0	nt	nt	nt
CCSc1ccccc1C(=O)NCc1ccc(OC)cc1	-3.0	8	-39	6%	-5
CN(CC(=O)Nc1ccc(Cl)cc1)C1CCCCC1	3.0	-9	nt	nt	nt
CCCS(=O)(=O)c1c(S(=O)(=O)CCC)c2cc(-c3ccncc3)ccn2c1C(=O)OC	-29	6	nt	-4%	-17
O=C(N/N=C/c1cccnc1)C(=O)N1CCCCCC1	-1.1	5	nt	-8%	nt
C/C(N)=C(/C#N)C(=O)CSc1nc2cc(Cl)ccc2c(=O)n1-c1ccc(C)cc1	3.4	-2	-5	6%	9
COC(=O)c1cc(OC)c(OC)cc1NC(=S)N1CCN(c2ccccn2)CC1	-1.1	0	nt	-4%	-3
Cc1cccc(C)c1NC(=O)C1CCCN1C(=O)Nc1cccc(F)c1 (centres undefined)	-0.8	0	nt	nt	nt

Three compounds drawn at random from those above, as already listed:
SMILES	RecA splice inh	Mtb betalactam	YopH inh	Mtb growth	Arbovirus anti	others
O=C(N/N=C/c1cccnc1)C(=O)N1CCCCCC1	-1.1	5	nt	-8%	nt
O=C(Nc1cccc(Cl)c1)c1ccc2c(c1)OCCO2	0.2	0	nt	nt	nt
CCOC(=O)c1ccc(Nc2c(CC)c(C)nc3ncnn23)cc1	-0.8	-9	-16	3%	-5

(listing goes on)
SMILES	RecA splice inh	Mtb betalactam	YopH inh	Mtb growth	Arbovirus anti	others
CC(C)Oc1ccccc1C1(c2ccccc2)NC(=O)NC1=O (centres undefined)	1.6	2	nt	nt	nt
O=c1[nH]ncc2c3ccccc3n(Cc3ccc(F)cc3)c12	-0.7	1	-9	-2%	6
CCOc1ccc(-c2cn(S(=O)(=O)c3cccc4nsnc34)nc2N)cc1	1.3	-14	-10	13%	-1
CCOC(=O)CCN1C(=O)c2ccccc2Sc2ncccc21	-0.2	3	nt	nt	nt
CCc1nn(CC(=O)NCc2cccnc2)c(=O)c2cc3occc3n12	0.5	-3	nt	nt	nt
CCOC(=O)[C@@H]1[C@H]2COc3ccc(Br)cc3[C@@H]2N2C(=O)N(c3cccc(F)c3)C(=O)[C@]12C	6.7	-3	nt	-4%	nt
C=CCOc1ccc(CNn2c(C)n[nH]c2=S)cc1OC	-1.2	-12	-36	-5%	-1
O=C(NCC(=O)N1CCCCCCC1)c1ccccc1Br	-0.8	-1	nt	nt	nt
Cn1c(SCC(=O)c2c(N)n(C)c(=O)n(C)c2=O)nnc1-c1ccccc1F	-0.6	-2	nt	3%	1
COc1cc(OC)nc(Oc2cccc(Cl)c2C)n1	1.8	69	nt	nt	nt
Cc1ccc(-c2nnc3ccc(SCC(=O)Nc4cc(C)on4)nn23)cc1	-0.2	-1	-44	-7%	-4
CC1(C)NC(=O)N(CC(O)Cn2c3ccccc3c3ccccc32)C1=O (centres undefined)	1.6	0	nt	-5%	10
CC12CCC(C(=O)NC3CCCCC3)([C@H](Br)C1=O)C2(C)C (some centres undefined)	-2.8	-4	nt	0%	nt
CC(C)CCNC(=O)CN(C(=O)CCC(=O)Nc1ccccn1)c1ccc(F)c(Cl)c1	2.7	0	nt	0%	-7
COc1ccc(/C=N/NC(=O)c2[nH]c(C)c(C(=O)N/N=C/c3ccc(OC)cc3)c2C)cc1	-5.1	-2	-14	-4%	1
CS(=O)(=O)N1CCc2cc(C(=O)Nc3ccccc3Br)ccc21	-0.4	3	nt	nt	nt
O=C(NCCCO)C(=O)NCC(c1ccc2c(c1)OCO2)N1CCN(c2ccc(F)cc2)CC1 (centres undefined)	-3.2	-8	nt	nt	nt
COc1ccccc1OCC(=O)Nc1ccc(S(=O)(=O)Nc2cc(C)nc(C)n2)cc1	4.1	57	-30	-8%	2
CCOc1ccc(CN2C(=O)c3ccccc3C2C(=O)NCC2CCCO2)cc1 (centres undefined)	-2.6	-10	nt	4%	0
NC(=O)c1ccccc1NC(=O)c1ccc2ccccc2c1	1.4	-3	nt	nt	nt
CCN(CC)c1ccc(N=Cc2c(O)n(Cc3ccccc3)c(=O)[nH]c2=O)cc1	-6.0&-43	-3&3	6&-36	1%&3%	-4&-4
COc1ccc(-c2cc(C)nc3c(-c4ccccc4)cnn23)cc1	-13	nt	nt	9%	4
COc1ccccc1NC(=O)c1ccc(COc2ccccc2Br)o1	0.2	9	nt	nt	nt
COC(=O)NCCc1cc(OC)c(OC)cc1S(=O)(=O)N1CC(=O)Nc2ccccc21	1.6	-5	nt	nt	nt
COc1cc(C(=O)NC(C)CCn2cccn2)ccc1OC1CCN(C(C)=O)CC1 (centres undefined)	-3.3	-7	nt	nt	nt
COC(=O)c1c(N2C(=O)[C@H]3[C@@H](C2=O)[C@]2(C(=O)Nc4c2ccc(C)c4C)N2CCC[C@@H]32)sc(C)c1C	7.7	-2	16	5%	6
Cc1ccc(CNC(=O)c2cncc(Br)c2)cc1	-2.4	20	nt	3%	0
CC(C)C(=O)Nc1nnc(-c2ccccc2)o1	-0.5	35	-35	11%	-1	Arbovirus anti repeat=-1
CCCNS(=O)(=O)c1ccc(OCC(=O)N2CCCC2)cc1	1.2	-9	nt	-9%	2
CS(=O)(=O)N(CC(=O)N1CCc2ccccc2C1)c1ccc(Br)cc1	2.7	-6	nt	nt	nt
O=C(Nc1cccnc1Cl)c1cc(-c2ccc(F)cc2)on1	0.8	8	nt	nt	nt
O=c1c(NCCc2ccccc2)c(-c2ccccc2)c1=O	-1.6	2	nt	nt	nt
Cc1occc1-c1nnc(SCC(=O)NCc2cccs2)n1-c1ccc(F)cc1	0.6	9	-29	7%	-6
Cc1noc(C)c1C(=O)Nc1ccc(S(=O)(=O)N2CCCCC2)cc1	0.9	-19	nt	nt	nt
Cc1ccc2nc(C3CCCN(C(=S)Nc4ccccc4C)C3)[nH]c2c1 (centres undefined)	-1.3	9	-54	4%	2
CSC(=NC#N)N1CCN(c2ccc(Cl)cc2)CC1	13	10	18	-1%	-4
CC(C)c1ccc(NC(=S)NNc2ccc(Cl)c(C(=O)O)c2)cc1	4.1	0	nt	5%	nt
CC(C)(C)NC(=O)COC(=O)c1ccc2c(c1)C(=O)N(Cc1ccco1)C2=O	2.0	2	nt	nt	nt
CN(C(=O)COc1ccc(Cl)cc1Br)C1CCCCC1	8.7	?	nt	nt	nt
OCCNc1nc(N2CCCC2)nc(N2CCCC2)n1	1.3	-9	7	-8%	-2
CC(C)=CCN1CCN(Cc2ccc3nsnc3c2)CC1CCO (centres undefined)	-0.5	-7	nt	2%	-3
c1ccc(-n2ncc3c(N4CCN(c5ccccn5)CC4)nc(N4CCCCCC4)nc32)cc1	2.4	4	-11	13%	3
O=C(O)C1(c2ccccc2)CCN(S(=O)(=O)c2ccccc2)CC1	-0.7	-11	nt	nt	nt
CCOc1ccc(NC(=O)CN(C)C(=O)c2ccc(N3CCCCCC3)c([N+](=O)[O-])c2)cc1OCC	3.1	0	nt	nt	nt
O=C(C1CCCO1)N1CCN(C(=S)Nc2ccccc2)CC1 (centres undefined)	1.0	2	-27	-9%	5
CC(=O)N(C)c1ccc(C(O)(C(F)(F)F)C(F)(F)F)cc1	0.0	2	nt	8%	12
COc1ccccc1N1N=C(c2cccs2)CC1c1ccccc1 (centres undefined)	-221	3	-13	9%	14
Cc1nc2ccc(NC(=O)c3cc(S(=O)(=O)N(C)c4ccccc4)ccc3Cl)cc2s1	2.9	0	-19	-1%	10
CCn1c(SCC(=O)N2CCOCC2)nnc1-c1ccco1	-2.5	-1	nt	nt	nt
CCC(=O)N1CCN(c2nc(-c3ccc(Cl)cc3)cs2)CC1	7.8	-2	-19	8%	19
Additional entries.
SMILES	RecA splice inh	Mtb betalactam	YopH inh	Mtb growth	Arbovirus anti	others
CCCOc1ccc(CNC(=O)C2CCN(C(=O)N3CCOc4ccccc43)CC2)cc1	-0.2	0	nt	nt	nt
COc1cccc(NC2=NCC(=O)N2Cc2cccs2)c1	-0.2	-10	-48	nt	-3
CCOc1ccc2nc(NC(=O)C3CCCN(S(=O)(=O)c4cccc5nonc45)C3)sc2c1 (centres undefined)	1.5	5	11	0%	5
CCOc1ccccc1NC(=O)N1CCCC1C(=O)Nc1nnc(CC)s1 (centres undefined)	1.4	0	1	-7%	5
C=CCn1c(-c2cccc(OC)c2)nc2nc3ccccc3nc21	2.7	6	17	-7%	-3
COc1ccc(N(C(C)C(=O)NCc2ccco2)S(C)(=O)=O)cc1 (centres undefined)	-0.3	-4	-9	-4%	12
CC(C)NC(=O)CC1C(=O)N(Cc2ccccc2)C(C)c2nc3ccccc3n21 (centres undefined)	0.3	1	nt	5%	2
Cc1ccc(NC(=O)CCC(=O)NNC(=S)Nc2ccc(F)cc2F)cc1C	-1.9	4	nt	nt	nt
COc1ccc(Cn2c(/C=C/c3ccccc3)nc3ccccc32)cc1	9.7	19	-32	6%	-24
COc1ccc(C(C)=O)cc1CC(C(=O)c1ccc(C)c(C)c1)N(C)C (centres undefined)	1.0	-4	-32	4%	-10
COc1ccc(/C=N/NC(=O)CC(=O)N/N=C/c2ccc(OC)cc2)cc1	1.6	-2	nt	2%	3
CCOc1cc(CNCCc2ccccc2F)ccc1OC	-0.5	-4	nt	nt	nt
CCn1c(SCC(=O)NC2CCCCC2)nc2c(c1=O)SC(C)C2 (centres undefined)	1.4	4	0	nt	10
Cc1ccc(CNC(=O)CSc2nc(C)cc(C)c2C#N)cc1	nt	-6	-30	-9%	3
O=C(N/N=C/c1ccc2c(c1)OCO2)C(=O)Nc1ccccc1	-5.4	2	nt	-5%	nt
COc1ccc(OC)c(S(=O)(=O)N(C)CC(=O)N2CCc3ccccc3C2)c1	2.1	-6	4	-3%	-1
N#Cc1c(SCC(=O)N2CCCCC2)nsc1SCC(=O)N1CCCCC1	-0.1	-1	-18	18%	13
O=C(OCCCN1CCCC1)C1(c2ccccc2)CCCC1	1.8	6	-10	-6%	1
COc1cc(C)c(C(C)C)cc1S(=O)(=O)NCCCn1ccnc1	1.6	-6	-29	-2%	2
CCc1ccccc1N(CC(=O)N1CCCCCC1)S(C)(=O)=O	0.2	-4	nt	nt	nt
O=C(O)CNC(=O)/C(=C/c1cccc([N+](=O)[O-])c1)NC(=O)c1ccco1	0.7	-7	-14	-5%	-4
CCc1ccc(S(=O)(=O)Nc2cccc(-c3ccc4nnc(C)n4n3)c2)s1	-3.0	-12	nt	nt	nt
COC(=O)c1ccc(C(=O)OC)c(NC(=O)CSc2nnc(-c3ccccc3Cl)o2)c1	-3.8	49	10	-12%	nt
C/C(=N\NC(=O)c1nnn(-c2nonc2N)c1CSc1ccccc1)c1ccco1	3.9	-6	nt	nt	nt
COc1ccccc1-c1n[nH]c(=S)n1Cc1ccco1	-0.8	6	nt	0%	3
CCOc1cccc(C2/C(=C(/O)c3ccc4c(c3)CC(C)O4)C(=O)C(=O)N2Cc2ccncc2)c1 (centres undefined)	1.3	-5	nt	nt	nt
O=C(c1cc(Cl)ccc1F)N1CCCC(Nc2ccc3c(c2)OCCO3)C1 (centres undefined)	-4.5	-7	nt	nt	nt
Cc1ccc2[nH]c(C(=O)O)c(NC(=O)[C@@H]3C[C@@H]3c3ccccc3)c2c1	5.1	0	nt	-3%	nt
Cc1cc(C)n(-c2ccc(C(=O)Nc3cccnc3)cc2)n1	-1.6	-1	nt	-4%	nt
COC(=O)c1sccc1NC(=O)Nc1cc(OC)ccc1OC	2.2	6	nt	nt	nt
O=C(NCc1ccc2c(c1)OCO2)Nc1ccc(F)cc1	-2.3	-5	nt	nt	nt
N#CCCN(C(=O)Nc1ccc(Cl)c(Cl)c1)c1ccccc1	-0.7	4	-21	3%	5
CCn1c(SCc2cccc(C(=O)O)c2)nnc1-c1ccccc1	5.3	-9	-57	-11%	4
COCC(C)NC(=O)c1ccccc1OC(C)=O (centres undefined)	1.7	2	-28	-11%	13
O=C(COC(=O)c1cc(Br)ccc1Cl)NC1CC1	nt	nt	-27	26%	-1

A portion of the library; count on the stated rates, not on these rows.
